Arbovirus anti: blocks arbovirus infection; inhibition, % at 10 µM; arbovirus infection cell-based antiviral screen; actives 0.37% (n = 200,000); AID 1251;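 active = inhibition from about 30%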;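 note: bluetongue infection of BSR cells; cell survival read as ATP light after 72 h; 0% = infected wells without compound and 100% = uninfected wells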
Mtb growth: M. tuberculosis H37Rv growth inhibitors, H37Rv strain (AID 1626); M. tuberculosis H37Rv growth inhibition; higher % means a stronger effect; inhibition, % at 10 µM, or IC50 in µM where a hit was titrated; actives 0.95% (n = 220,000);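 active = confirmed in a dose series; inconclusive = inhibition above 80% but not taken into the dose series; inactive = below 80% or under 30% at every dose of the series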;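 note: bacteria incubated seven days before Alamar blue readout; 0% = bacteria only wells and 100% = bacteria with antibiotic wells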
Mtb bLac sens: beta-lactam sensitization of Mtb H37Rv. AID 434955. M. tuberculosis H37Rv growth with meropenem, percent inhibition; hits of this screen are not shown here. inhibition, % at 25 µM. actives 0.27% (n = 330,000);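 active = about 74% or more and at least 40 points above the plate without the antibiotic, then above 30% in a dose series; inconclusive = first-round hits that could not be retested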;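 note: growth measured after seven days incubation then overnight dye step; 0% = bacteria only wells and 100% = bacteria with antibiotic; twin plates without the antibiotic show which effects depend on it; some results filed as inactive read as strong as hits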
YopH PTP inh: YopH (Yersinia) phosphatase inhibition; inhibition, %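 (about 10 µM by stock and volumes)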; fluorescence Ex485/Em525; actives 0.16% (n = 140,000);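 active = inhibition of 50% or more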;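 note: controls were vehicle for no effect and minimum signal wells for full effect; inactives centre near -20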
RecA intein inh: inhibitors of M. tuberculosis RecA intein splicing; P9WHJ3; cell-free RecA intein splicing, fluorescence; inhibition, %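 (about 9 µM by stock and volumes)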; actives 0.75% (n = 290,000); AID 2221; in the data active = inhibition above about 30%; inconclusive = no clear call, values can overlap the other calls;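 note: 0% = vehicle wells and 100% = reference inhibitor control wells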
Target sequence (P9WHJ3 whole entry, looked up): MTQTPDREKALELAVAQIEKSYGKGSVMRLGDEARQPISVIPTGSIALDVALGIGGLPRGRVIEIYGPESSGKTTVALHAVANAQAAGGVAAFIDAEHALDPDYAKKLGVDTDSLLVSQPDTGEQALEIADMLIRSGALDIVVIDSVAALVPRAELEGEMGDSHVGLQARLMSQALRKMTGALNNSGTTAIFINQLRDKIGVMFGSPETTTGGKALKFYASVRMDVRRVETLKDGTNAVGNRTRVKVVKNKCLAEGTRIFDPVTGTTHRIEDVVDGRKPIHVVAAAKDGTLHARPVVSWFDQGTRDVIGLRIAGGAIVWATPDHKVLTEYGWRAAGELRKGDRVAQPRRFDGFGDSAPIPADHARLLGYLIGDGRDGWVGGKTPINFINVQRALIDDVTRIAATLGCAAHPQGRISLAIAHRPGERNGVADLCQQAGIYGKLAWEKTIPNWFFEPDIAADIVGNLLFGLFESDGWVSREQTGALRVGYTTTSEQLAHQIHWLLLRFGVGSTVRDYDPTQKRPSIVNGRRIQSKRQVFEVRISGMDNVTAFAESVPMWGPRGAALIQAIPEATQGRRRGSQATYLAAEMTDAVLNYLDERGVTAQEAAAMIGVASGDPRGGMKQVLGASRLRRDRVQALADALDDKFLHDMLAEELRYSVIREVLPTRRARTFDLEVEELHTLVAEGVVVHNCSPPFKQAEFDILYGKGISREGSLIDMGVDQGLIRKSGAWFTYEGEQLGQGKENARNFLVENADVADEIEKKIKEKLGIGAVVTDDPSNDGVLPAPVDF
Arbovirus anti repeat: also measured in Arbovirus anti; calls as there; inhibition, %; measured here: 10K subset replicate screen; many hits read low in the repeat;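 first of two repeat runs on a subset; 0% = infected and 100% = uninfected wells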
An asterisk follows results filed as active; i = inactive; ? = inconclusive; . = not tested or not shown. Some of the compounds tested; the hit share may differ from the screen's.

SMILES	Arbovirus anti	Mtb growth	Mtb bLac sens	YopH PTP inh	RecA intein inh	others
CN1c2ccccc2C(=O)NC1c1ccc([N+](=O)[O-])s1 (centres undefined)	.	-3%	.	.	-1.7
COc1ccc(Cl)c(OC)c1C(=O)NC(=O)Nc1nc(C)nc(C)n1	.	.	1	.	2.6
Cc1ccc(OCC(=O)N/N=C/c2cccn2C)cc1C	.	-1%	-11	.	-1.1
Cc1nc2ccccc2c(=O)n1-c1ccc(Cl)c(Cl)c1	.	.	-6	.	2.8
CCOC(=O)CSc1nnc(CSc2nc3ccccc3c(=O)[nH]2)n1-c1ccccc1	4	-10%	-13	-17	5.8
COc1cccc(CN(C)CC(=O)Nc2cccc(C(F)(F)F)c2)c1OC	20	-4%	-11	.	0.7
Cc1ccc(N(CC(=O)Nc2ccc(S(=O)(=O)N3CCOCC3)cc2)S(C)(=O)=O)cc1C	-5	-13%	-8	3	4.8	Arbovirus anti repeat=-2
CCOC(=O)c1[nH]c(C)c(C(=O)NC2CCCCCC2)c1C	-1	-3%	-6	-23	2.2
CCS(=O)(=O)Nc1c(C)n(C)n(-c2ccccc2)c1=O	-5	-12%	-2	0	-0.3
O=C(NCc1cn2ccsc2n1)c1cccc(C(F)(F)F)c1	-5	-14%	2	-29	2.9
C#CCOCCOCCOCCNc1nc(N2CCN(C(=O)Cn3cc(CC(C)O)nn3)CC2)nc(N2CCN(C(=O)[C@H](CCCCN)n3cc(CCC(=O)O)nn3)CC2)n1 (some centres undefined)	3	-11%	-12	3	0.7
CCc1ccc2nc(-c3cccc(C)c3)nc(SCC(=O)NCC3CCCO3)c2c1 (centres undefined)	-9	-13%	11	-23	0.2
Cc1[nH]n(-c2ccc([N+](=O)[O-])cc2)c(=O)c1C=NCCN1CCN(C(=O)c2cccc(F)c2)CC1	1	-7%	1	-36	0.0
CCOC(=O)c1ccc(NS(=O)(=O)c2ccc3oc(=O)[nH]c3c2)cc1	.	.	-5	.	-1.5
CCOc1ccc(CCNC(=O)CSc2cc(=O)n(C)c3ccc(Cl)cc23)cc1OCC	19	-2%	9	0	-2.8
C=CCOc1ccc(Br)cc1CNCCO	5	4%	1	.	0.1
CCS(=O)(=O)Nc1cccc(-c2ccc3nnc(C)n3n2)c1	5	-7%	0	.	2.7
COc1ccc(Cl)c(Cn2c(NCCCO)nc3c2c(=O)n(C)c(=O)n3C)c1	11	-3%	1	-51	0.3
N#Cc1ccsc1NC(=O)COC(=O)c1cc(Br)ccc1O	.	-15%	-4	.	0.7
CCCCC#Cc1ccc(C(=O)NNC(=O)Nc2ccccc2)o1	.	2%	30	.	1.5
CCNc1nc(NCC)nc(N/N=C/c2ccc(N(C)C)cc2)n1	-5	9%	-3	.	.
Cc1cc(C)cc(NC(=O)CCc2nc3ccccc3[nH]2)c1	2	-8%	1	-31	-0.1
Fc1ccc(-c2cc3nc(-c4ccccc4)cc(N4CCOCC4)n3n2)cc1	2	2%	2	-16	.
Cc1ccc(CNC(=O)Cn2nnc(C(=O)Nc3cccc(C)c3C)c2N)cc1	.	.	4	.	-3.1
COc1cc(C=O)ccc1OCC(=O)Nc1ccccc1N1CCOCC1	.	.	3	.	-0.4
CN(Cc1nccn1C)C(=O)CC1C(=O)NCCN1Cc1ccccc1C(F)(F)F (centres undefined)	4	-6%	-6	.	-3.7
O=C(CCCc1ccccc1)NCCc1ccccc1	.	.	38	.	-1.0
CCOc1ccc2[nH]c(=O)c(CN(Cc3ccco3)Cc3nnnn3Cc3ccccc3)cc2c1	13	-1%	-1	-41	0.8
CN1C(=O)NC2(O)C(=O)c3ccccc3C12O (centres undefined)	-2	2%	3	-11	-1.3
CCN1CCN(C(=O)C(C)N(c2ccc(C)cc2)S(C)(=O)=O)CC1 (centres undefined)	15	1%	-8	-29	1.8
O=c1cc(CSc2nnnn2-c2ccccc2)nc2nc[nH]n12	3	-9%	-12	19	-1.2
CCCn1c(SCC(=O)Nc2nc(C)cs2)nnc1-c1cccnc1	4	-13%	3	12	.
CCc1nnc(NC(=O)c2ccc3ccccc3n2)s1	15	12µM*	90	.	1.1
COc1ccc(CCN2C(=O)C3C4CC(C5C(C(=O)O)=NOC45)C3C2=O)cc1OC (centres undefined)	4	-9%	-3	1	-1.4
CCN(C(=O)c1cccc(NC(=O)c2ccccc2)c1)C1CCCCC1	.	.	?	.	6.6
COc1cc(C(=O)NCC(C)(C)CNC(=O)c2cc(OC)c(OC)c(OC)c2)cc(OC)c1OC	.	.	-6	.	-3.2
CCN(CC)c1ccc(NC(=O)CNCc2ccccc2Cl)c(C)c1	.	.	2	.	-0.1
COC(=O)c1ccc2c(c1)C(C)(C)C(/C=C/c1ccccc1O)=[N+]2C	-32	-1%	21	-2	.
CC(C)(S)[C@@H](N)C(=O)O	3	.	0	-23	-4.2
Cc1ccc(NC(=O)C2CCN(S(=O)(=O)c3ccc4c(c3)OCCO4)CC2)c(O)c1	.	.	-7	.	4.1
COc1ccccc1NC(=O)Nc1nnc(C(C)c2ccccc2)s1 (centres undefined)	.	.	5	.	1.2
COc1ccc(CNC(=O)COC(=O)/C=C/c2ccc(S(=O)(=O)N3CCOCC3)cc2)cc1	7	-9%	34	.	9.5
CC(C)c1ccc(C(N)=S)cc1	13	?	40	.	-2.3
Cc1noc(C)c1CSCc1ccc(Cl)cc1	-5	2%	2	.	.
CNC(=O)CSc1nnc(-c2ccccc2F)n1CCc1ccccc1	.	.	-1	.	-1.7
CC(=O)Nc1ccc(NC(=O)CSc2nc3[nH]ncc3c(=O)n2-c2ccccc2)cc1	.	.	-3	.	-0.4
CCOC(=O)CSc1nc(Cc2ccccc2)nc2ccccc12	-6	-4%	-2	.	23
CC(C)C(NC(=O)c1cccs1)c1nnc(SCC(=O)Nc2nccs2)n1C (centres undefined)	7	-3%	-2	-20	-0.3
CC(C)(C)C(=O)OCc1nc(-c2ccc(O)c(O)c2)cs1	.	-2%	41	.	-0.8
NS(=O)(=O)c1ccc(CNC(=O)c2cc(-c3ccccn3)nc3ccc(Cl)cc23)cc1	-10	8%	-3	.	5.3
(listing goes on)
SMILES	Arbovirus anti	Mtb growth	Mtb bLac sens	YopH PTP inh	RecA intein inh	others
CCOc1ccc(NS(=O)(=O)c2ccc(C(=O)NCC(c3ccc(OC)cc3)N3CCOCC3)cc2)cc1 (centres undefined)	.	.	-8	.	1.4
O=C1[C@H]2[C@H](C=CC[C@H]2C(=O)N2CCOCC2)CCN1Cc1ccccc1	.	-5%	7	.	-2.8
COc1ccc(NC(=S)NCCc2ccccc2OC)c(OC)c1	11	6%	-2	-6	4.7
N=c1c(C(=O)NCC2CCCO2)cc2c(=O)n3ccccc3nc2n1C1CCCCC1 (centres undefined)	.	.	6	.	i
Cc1nc(NC(=O)CN2CCOCC2)sc1-c1ccccc1	-23	-5%	10	-50	-0.2
O=C(c1cnn2c(C(F)(F)F)cc(-c3ccccc3)nc12)N1CCCc2ccccc21	5	-2%	-8	-20	-4.0
Cc1cccc(CCNC(=O)c2cc(S(=O)(=O)N3CCCCC3)c[nH]2)c1	.	.	2	.	0.0
O=C(COC(=O)C(c1ccccc1)c1ccccc1)NCc1ccco1	7	-4%	-4	.	6.4
O=C(Nc1ccc(Cc2ccncc2)cc1)c1ccc(Br)o1	-7	2%	2	14	0.0
Cc1cccnc1NC(=O)Nc1ccccc1	.	-2%	-2	.	5.3
C/C=C/c1ccc(OCCCCN2CCN(CC)CC2)c(OC)c1	-8	8%	-5	.	-2.6
Cc1cc(C)c(N=Cc2c(O)c3ccccc3oc2=O)c(C)c1	.	.	-5	.	-3.5
CCc1[nH]nc2c1C1(C(=O)N(Cc3ccccc3)c3ccccc31)C(C#N)=C(N)O2 (centres undefined)	6	-1%	1	-27	9.4
COc1ccc(OC)c2c(C)cc(C)nc12	1	3%	0	-23	1.5
COc1ccc(OC)c(CCNC(=O)CC2Oc3ccccc3NC2=O)c1 (centres undefined)	2	0%	3	-31	.
COc1ccccc1-c1cc2ccccc2[nH]1	-2	-3%	7	-2	5.3
COc1ccc(-n2c(C)c(C(=O)O)c3cc(OC)c4ccccc4c32)cc1	.	0%	24	.	-0.4
CN1CC(C(=O)c2ccc(F)cc2)C(c2c(F)cccc2Cl)C1 (centres undefined)	5	5%	-11	.	1.1
Cc1nn(C)c(C)c1CNC(=O)Nc1cccc(Cl)c1C	7	-6%	-5	.	-0.4
O=C(CN1CCN(S(=O)(=O)c2ccccc2C(F)(F)F)CC1)NCc1cccs1	.	.	-2	.	0.1
CC(C)(C)NCC(O)CON=C1c2ccccc2-c2ccccc21 (centres undefined)	-22	-13%	2	.	-1.0
O=c1c2ccccc2nc2c3ccccc3ncn12	26	-15%	4	-11	-2.4	Arbovirus anti repeat=-1
NC(=O)C1CCN(C(=O)COc2ccc3ccccc3c2)CC1	-1	-6%	2	-26	-4.1
CCn1c(=O)c2c(nc(SCC(=O)Nc3ccccc3)n2C)n(C)c1=O	.	.	2	.	-0.6
CC1CCN(c2cc(=O)n(C3CCCCC3)c(=O)[nH]2)CC1	-8	9%	-4	-46	-1.8
COc1cc2c(C(=O)OCCN(C)C)c(CSc3ccccc3)n(C)c2cc1Br	11	6%	4	.	3.2
COc1cc(O)c(/C=N/NC(=O)c2ccncc2)c(OC)c1[N+](=O)[O-]	5	?	99	.	3.2
CN(c1ccccc1)S(=O)(=O)c1ccc(NC(=S)Nc2ccccc2)cc1	5	-4%	1	-54	2.5
Cc1ccc(OCC(=O)Nc2ccccc2F)cc1C	-7	2%	57	.	1.2
CCNc1ccc(Br)cc(C(=O)/C=C/c2ccc(Cl)cc2Cl)c1=O	-34	6%	5	1	4.9
COCCNC(=O)/C(C#N)=C/c1ccc(OCc2ccccc2)cc1	2	-6%	1	.	1.8
CC(=O)Nc1ccc(CN2CCc3c([nH]c4ccccc34)C2C(C)(C)C)cc1 (centres undefined)	.	.	-10	.	0.9
O=C(NCCN1CCOCC1)C1CCN(S(=O)(=O)N2CCCCC2)CC1	-1	2%	-1	-28	-1.1
COc1ccccc1NS(=O)(=O)c1cccc(C(=O)N/N=C/c2cn(-c3ccccc3)nc2-c2ccccc2)c1	-7	11%	2	-30	-3.4
O=C(Nc1cccc(C(F)(F)F)c1)/C(=C\c1ccco1)NC(=O)c1cccs1	0	-1%	?	-22	0.2
Cc1cc(OCC(=O)Nc2cccc(S(=O)(=O)NC3=NCCCCC3)c2)ccc1Cl	27	0%	-4	-22	-6.6
Cc1cc(C(F)(F)F)nc(SCC(=O)NC2CC3CCC2C3)n1 (centres undefined)	1	-2%	-3	-21	-1.5
Cc1cc(C)cc(N(CC(=O)Nc2c(C)n(C)n(-c3ccccc3)c2=O)S(C)(=O)=O)c1	-1	-8%	-7	-40	.	Arbovirus anti repeat=-1
O=C1c2cccc(OCC(=O)N3N=C(c4cccs4)CC3c3ccc(F)cc3)c2CCN1Cc1cccnc1 (centres undefined)	-31	14%	-4	11	-1.6
CCC1Oc2ccc(C)cc2N(CC(=O)NCc2ccccc2OC)C1=O (centres undefined)	0	-4%	12	3	-0.7

4 structures from above, ordered by formula weight, highest first:
SMILES	Arbovirus anti	Mtb growth	Mtb bLac sens	YopH PTP inh	RecA intein inh	others
Cc1cc(OCC(=O)Nc2cccc(S(=O)(=O)NC3=NCCCCC3)c2)ccc1Cl	27	0%	-4	-22	-6.6
CCC1Oc2ccc(C)cc2N(CC(=O)NCc2ccccc2OC)C1=O (centres undefined)	0	-4%	12	3	-0.7
Cc1cc(C(F)(F)F)nc(SCC(=O)NC2CC3CCC2C3)n1 (centres undefined)	1	-2%	-3	-21	-1.5
COCCNC(=O)/C(C#N)=C/c1ccc(OCc2ccccc2)cc1	2	-6%	1	.	1.8

Random excerpt: 2 compounds from above, in no set order.
SMILES	Arbovirus anti	Mtb growth	Mtb bLac sens	YopH PTP inh	RecA intein inh	others
CC(C)(C)C(=O)OCc1nc(-c2ccc(O)c(O)c2)cs1	.	-2%	41	.	-0.8
CCOC(=O)CSc1nc(Cc2ccccc2)nc2ccccc12	-6	-4%	-2	.	23

Other records follow:
SMILES	Arbovirus anti	Mtb growth	Mtb bLac sens	YopH PTP inh	RecA intein inh	others
CC(=O)OC[C@H]1O[C@@H](O/N=C/[C@@H](C)[C@H](OCc2ccccc2)C(C)C)[C@H](OC(C)=O)[C@@H](OC(C)=O)[C@@H]1OC(C)=O	5	.	-16	-19	1.4
Cc1cc(C)c(NC(=O)Cn2cc3c(n2)CCCC3)c(C)c1	-1	-11%	-6	-34	3.3	Arbovirus anti repeat=-2
CCS(=O)(=O)Nc1ccc(C2=NN(C(=O)c3ccccc3)C(c3cccs3)C2)cc1 (centres undefined)	.	.	64	.	5.8
COc1ccc(C)cc1Nc1nc(N)c2cc(OC)c(OC)cc2n1	.	.	11	.	-2.4
Cc1cccc(OCc2nnc(SCC(=O)Nc3ccc(N4CCOCC4)cc3)o2)c1	.	.	-6	.	1.1
OC(C#CCN1CCOCC1)(c1ccccc1)C1CCCCC1 (centres undefined)	6	-1%	-12	0	4.2

High-throughput results: PubChem, several laboratories
